CBX7 inh – CBX7 inhibition, primary AlphaScreen; normalised signal (fraction of DMSO) (concentration not given with the values); AlphaScreen His6-CBX7 / biotin-H3K27me3 peptide binding; active compounds read low; hit rate 1.1% among 66,000; O95931; in the data active = normalised signal below about 0.5;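 also: 100 nL library stock added to about 20 µL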
Target sequence (O95931 whole entry, looked up): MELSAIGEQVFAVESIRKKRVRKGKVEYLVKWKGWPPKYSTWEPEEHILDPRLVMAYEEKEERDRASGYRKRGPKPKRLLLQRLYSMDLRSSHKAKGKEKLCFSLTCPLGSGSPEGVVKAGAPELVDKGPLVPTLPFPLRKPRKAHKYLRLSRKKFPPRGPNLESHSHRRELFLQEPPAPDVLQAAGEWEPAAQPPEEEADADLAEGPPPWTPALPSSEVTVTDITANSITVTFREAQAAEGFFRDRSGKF
CBX7 inh z-score – also measured in CBX7 inh; calls as there; z-score; measured here: z-score of CBX7 signal; some inactives read as strong as hits; reference of the scale not given here;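 same signal on another scale; lower means less binding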
Numbers without * were called inactive. Some of the compounds tested; count on the stated rates, not on these rows.

SMILES	CBX7 inh	CBX7 inh z-score
COc1cc(Cc2nccc3cc(OC)c(OC)cc23)c(NC(=O)Cc2ccccc2)cc1OC	0.826	-2.67
Cc1cc(C)n2c(Nc3c(C)cccc3C)c(-c3ccccc3)nc2n1	0.927	-0.806
COc1ccccc1N1CCN(C(c2cccs2)C(C)NC(=O)C(=O)NCc2ccccn2)CC1 (stereo not drawn)	0.848	-3.71
COC(=O)c1ccccc1NC(=O)C1CC(c2ccc(F)cc2)=NO1 (stereo not drawn)	1.02	0.705
Cc1cc(OCC(=O)Nc2ccc3oc(-c4ccccc4F)nc3c2)ccc1Cl	0.956	-1.28
O=C(Nc1ncc2c(n1)CC(c1ccc(Cl)cc1)CC2=O)c1ccccc1 (stereo not drawn)	0.994	-0.168
CCN1C(=O)CSc2ccc(C(=O)NCCc3ccc(OC)c(OC)c3)cc21	1.04	1.06
O=C(Cn1cc2c(n1)CCCC2)Nc1ccccc1Cl	1.02	0.515
O=c1[nH]c(-c2ccc(OCc3ccc(F)cc3)cc2)nc2sc3c(c12)CCCC3	1.07	1.39
C=CCn1c(CNC(=O)c2ccc(F)cc2)nc2ccccc21	0.802	-2.28
CC1=Nc2cc(C(=O)NCc3ccccn3)ccc2Sc2c(C)ccc(C)c21	0.695	-4.69
CCCN(CCC)CCNC(=O)CCC(=O)Nc1ccc2nc(N3CCCCC3)cc(C)c2c1	0.957	-1.87
COc1cccc(NC(=O)CN2C(=O)CC(c3ccc(OC)c(OC)c3)Sc3ccccc32)c1 (stereo not drawn)	0.971	-0.411
CCNC(=O)c1c(-c2c(Cl)cccc2Cl)noc1C	1.01	0.0403
Cc1ccc(C)c(CSc2nc3ccncc3n2Cc2cccc(F)c2)c1	0.999	-0.0611

Fetched by compound from above:
SMILES	CBX7 inh	CBX7 inh z-score
Cc1cc(OCC(=O)Nc2ccc3oc(-c4ccccc4F)nc3c2)ccc1Cl	0.956	-1.28
O=c1[nH]c(-c2ccc(OCc3ccc(F)cc3)cc2)nc2sc3c(c12)CCCC3	1.07	1.39
COc1cccc(NC(=O)CN2C(=O)CC(c3ccc(OC)c(OC)c3)Sc3ccccc32)c1 (stereo not drawn)	0.971	-0.411

Next records follow.
SMILES	CBX7 inh	CBX7 inh z-score
CC(C)(C)n1nc2c(c1NC(=O)Cc1ccc(F)cc1)CSC2	1.01	0.56
Cc1ccc(-n2cc(-c3ccccc3)c3c(NCCCN4CCOCC4)ncnc32)cc1Cl	0.934	-1.87
O=C(CC1C(=O)N(c2ccc(F)cc2)C(=O)N1Cc1cccs1)Nc1ccccc1 (stereo not drawn)	1.04	1.36
CCOc1ccc2nc(N3CCC(C(=O)NCc4ccc5c(c4)OCO5)CC3)sc2c1	1.04	0.162
CCCc1ccc(C(=O)Nc2nc3ccc(OC)cc3s2)cc1	1.11	3.17
O=C(Nc1ccccc1Cl)c1sc(-c2ccccc2)nc1-c1ccc([N+](=O)[O-])cc1	0.938	-1.35
COc1ccc(CNC(=O)CS(=O)(=O)Cc2nc(-c3ccccc3C)oc2C)cc1	0.713	-1.01
Cc1cccc(C)c1NC(=O)C(c1ccccc1)N1CCC2(CC1)OCCO2 (stereo not drawn)	0.986	-0.155
Cc1cccn2cc(-c3cccc(NC(=O)CCC(=O)O)c3)nc12	1.06	0.397
Clc1ccc(-n2ncc3c(Nc4ccc(OCc5ccccc5)cc4)ncnc32)cc1	0.978	-0.079
COc1ccccc1NC(=O)Cn1cnc2c(nnn2Cc2ccc(C)cc2)c1=O	0.898	-1.67
COc1ccc(-n2nc(C(=O)Nc3ccc(OC)c(OC)c3)c3ccccc3c2=O)c(OC)c1	0.917	-1.61
O=C(CCc1nc(-c2cccs2)no1)Nc1ccc(C(F)(F)F)cc1	1.1	2.68
CCOc1ccc(CCNS(=O)(=O)c2ccc3c(c2)CCN3C(=O)C2CC2)cc1OCC	1	0.127
Cc1ccc(C(=O)Nc2cccc(O)c2)cc1S(=O)(=O)N1CCC(C)CC1	0.924	-2.02
Cc1cc(C)cc(NC(=O)CCn2ccnc2C)c1	1.05	1.62
CCOc1ccc(-n2c(Cc3cc(=O)[nH]c(=O)[nH]3)nnc2SCC(=O)Nc2cccc(C)c2)cc1	1.08	1.26
Cc1oc(-c2ccccc2F)nc1CN1CCC(C(=O)NCCC2=CCCCC2)CC1	1.08	0.931
O=C(CSCc1cnn(-c2ccccc2)c1-n1cccc1)NCc1ccc2c(c1)OCO2	0.964	-1.63
COc1cccc(C(=O)Nc2ccc3nc(N4CCCCC4)cc(C)c3c2)c1	0.797	-3.69
O=C1CCc2cc(S(=O)(=O)NC(Cc3ccccc3)C(=O)NCc3cccnc3)ccc2N1 (stereo not drawn)	1.01	0.128
CCOc1ccc(-c2cc(C(=O)NCCN3CCOCC3)c3ccccc3n2)cc1	0.992	-0.153
Fc1cccc(-c2nnc3ccc4ccccc4n23)c1	0.901	-1.57
Cc1cc(=O)n2nc(N3CCC(C(=O)NCc4ccc(OC(C)C)cc4)CC3)sc2n1	0.993	-0.068
COc1ccc(CCCc2nnc(SCC(=O)Nc3ccc(C)cc3)o2)cc1C	0.999	-0.00932
O=C(CSc1nc2ccccc2[nH]1)Nc1ccc(OC(F)(F)F)cc1	1.01	0.0395
Cc1cc(N2CCC(C)CC2)nc2ccc(NC(=O)c3ccc4c(c3)OCO4)cc12	0.924	-0.612
Cc1cccc(OCC(=O)Nc2cccc(-c3nc4ncccc4o3)c2)c1	1.01	0.33
Cn1nc(-c2ccc(N3CCCCC3)c(NS(C)(=O)=O)c2)c2ccccc2c1=O	1.23	1.01
O=C(Nc1cccc(C(F)(F)F)c1)c1cnc2ccccn2c1=O	1.03	0.399
CCOC(=O)c1cnc2ccc(OCC)cc2c1N1CCCC(C)C1 (stereo not drawn)	0.74	-0.292
CCc1nnc(NC(=O)CSc2nnc(Cc3cc(=O)[nH]c(=O)[nH]3)n2-c2cccc(C)c2)s1	1.07	2.29
O=C(NCc1ccc(F)cc1)c1ccc2c(c1)NC(=O)c1ccccc1N2	0.978	-0.178
COc1ccc(Nc2cc(C(=O)N3CC(C)CC(C)C3)c3ccccc3n2)cc1 (stereo not drawn)	0.944	-0.244
Cc1nc2ccccc2n1-c1nc(-c2ccc(F)cc2)cc(C(F)(F)F)n1	1.07	1.71
Cc1cccc(-c2nc(-c3cccnc3)no2)c1	0.967	-0.0329
O=C(Nc1ccc(Cl)cc1)c1cc2nc(-c3ccc(Cl)c(Cl)c3)cc(C(F)(F)F)n2n1	1.07	0.486
COc1ccc(C(c2sc3nc(C)nn3c2O)N2CCc3ccccc3C2)cc1OC (stereo not drawn)	0.976	-1.16
CC1CCCCC1NC(=O)C1c2cccn2CC(=O)N1C1CCCc2ccccc21 (stereo not drawn)	0.96	-0.795
Cn1c(=O)c(=O)n(C)c2cc(S(=O)(=O)Nc3ccc(OC(F)(F)F)cc3)ccc21	1.16	1.14
COc1cccc(-n2ccnc2SCC(=O)Nc2ccc(C)cc2)c1	0.575	-0.564
O=C(CCN1C(=O)COc2ccccc21)NCc1cccs1	1.06	1.24
COc1cc(OC)c(NC(=O)c2n[nH]c(=O)c3ccccc23)cc1Cl	0.98	-0.822
Cc1ccc(N2C(=O)c3ccccc3C2Nc2cccc(Cl)c2C)nc1 (stereo not drawn)	1.06	1.86
CCc1ccccc1NC(=O)C1CCN(S(=O)(=O)c2c(C)noc2/C=C/c2cccs2)CC1	0.946	-0.111
COc1cc2c(cc1OC)C(c1ccc(Cl)c(Cl)c1)CC(=O)N2 (stereo not drawn)	0.907	-0.744
Cc1ccc(C(=O)CC2(O)C(=O)N(CCCc3ccccc3)c3ccccc32)cc1 (stereo not drawn)	0.6	-11.5
COc1ccccc1-c1cc(C(=O)NCCN2CCOCC2)no1	0.974	-0.596
O=C(c1ccc(CNc2c(NC3CCCC3)c(=O)c2=O)cc1)N1CCN(C2CCCC2)CC1	0.938	-0.142
Cc1[nH]c2ccccc2c1CCNC(=O)c1ccc(F)c(F)c1	0.997	-0.0744
COc1ccc(OCc2nc3ccccc3n2Cc2ccc(C)cc2)cc1	1.02	0.151
Cc1cc(N2CCC(C(=O)NCc3cccs3)CC2)n2nc(C)c(-c3ccc(Cl)cc3)c2n1	1.04	0.109
O=C(COc1ccc(Cl)cc1)NCc1nnc(SCC(=O)N2CCCC2)o1	0.903	-1.49
O=c1c(Br)c(-n2cc(CO)nn2)cnn1-c1ccccc1	0.954	-0.733
Cc1cc(N2CCN(c3ncccn3)CC2)nc2ccc(NC(=O)c3ccc(C(C)(C)C)cc3)cc12	0.982	-0.182
O=C(COc1ccc(F)cc1)Nc1nnc(SCc2ccccc2F)s1	1.18	3.16
COc1ccc(N2CCC(CNC(=O)Nc3cccc(OC)c3)C2)cc1 (stereo not drawn)	0.718	-11.4
Cc1noc(C)c1C(=O)N1CCN(c2ccc(OCc3ccccc3)cc2)CC1	0.958	-0.408
CCOc1ccc(NC(=O)CC2C(=O)N(c3ccc(F)cc3)C(=O)N2CCc2cccs2)cc1 (stereo not drawn)	0.983	-0.685
O=C(CNC(=O)Cn1ccc2ccccc2c1=O)NCCCN1CCN(c2cccc(Cl)c2)CC1	1.52	4.44
Carrying on:
SMILES	CBX7 inh	CBX7 inh z-score
Cc1ccc2nc(-c3ccc(N4C(=O)CC(N5CCC(C(N)=O)CC5)C4=O)cc3)sc2c1 (stereo not drawn)	0.993	-0.0722
O=C(NCCN=C1NS(=O)(=O)c2ccccc21)c1ccncc1	1.03	0.699
COc1ccc(C(=O)NC(C)c2nc3ccccc3n2CC(C)C)cc1OC (stereo not drawn)	0.949	-1.37
C=C(C)Cn1c(C2CC(=O)N(c3ccccc3)C2)nc2ccccc21 (stereo not drawn)	0.775	-2.43
O=C(O)c1ccc2[nH]c(=O)c(Cc3ccccc3Br)nc2c1	1.1	1.02
Cc1cccc(NC(=O)C2CCC(CNS(=O)(=O)c3cccc4cccnc34)CC2)c1 (stereo not drawn)	1.02	0.698
CCOC(=O)c1c(C)n(-c2ccc(C)cc2)c2ccc(OCC(O)Cn3ccnc3)cc12 (stereo not drawn)	0.545	-9.35
CN(CCCNC(=O)c1cc2c(s1)-c1ccccc1OC2)Cc1ccccc1	1.2	9.41
O=C(CSc1nnc(-c2ccc3c(c2)OCCO3)o1)N1CCc2ccccc21	1.05	1.99
COc1ccc(C2=NOC(C(=O)NCc3cccs3)C2)cc1OC (stereo not drawn)	1.05	1.67
Cc1ncc(CO)c2cc(-c3nc4ccccc4[nH]3)c(=O)oc12	1.17	1.09
COc1cccc(-c2nc(CSCC(=O)O)c(C)o2)c1	1.09	0.952
COc1ccccc1NC(=O)Cn1cc(S(=O)(=O)c2ccc(C)cc2)c(=O)c2cc(Cl)ccc21	0.989	-0.0747
Clc1cccc(Oc2nc(-c3ccccc3)nc3c2oc2ccccc23)c1	1.08	1.34
Cc1onc(-c2ccccc2Cl)c1C(=O)N1CCCCC1	1.1	0.825
Cc1ccc(S(=O)(=O)NC(C)C(c2cccs2)N2CCOCC2)cc1 (stereo not drawn)	1.12	2.92
COc1ccc(-c2nc3nc(C)cc(C)n3c2Nc2ccc(Cl)cc2)cc1	1.02	0.591
COc1ccc(-c2nc3cnccn3c2Nc2ccc(C)cc2)cc1	1.25	2.44
Cc1cc(Cl)ccc1OCCCC(=O)Nc1nc2c(s1)C(=O)CC(C)(C)C2	1.07	2.03
CCOc1ccc2nc(N3CCCC(C(=O)Nc4cc(Cl)ccc4C)C3)sc2c1 (stereo not drawn)	1.03	0.715
CCCCC(=O)Nc1ncc(Cc2cccc(Cl)c2Cl)s1	0.886	-1.9
CCC(Cc1ccccc1)NC(=O)CN1C(=O)COc2ccc(S(=O)(=O)N(CC)CC)cc21 (stereo not drawn)	1.04	0.581
Cc1cccc(N2C(=O)C3C4CC(=O)C(c5ccccc54)C3C2=O)c1C (stereo not drawn)	1.09	0.861
Cc1ccc(CNC(=O)CCCN2C(=O)COc3ccc(C)cc32)cc1	1.48	0.977
CC1CC(C)CN(C(=O)c2ccc3nc(N4CCOCC4)sc3c2)C1 (stereo not drawn)	1.09	0.22
COc1ccc(-n2cnc3cc(C(=O)NCc4ccccc4OC)ccc32)cc1	0.776	-2.17
CCN(c1ccc(F)cc1)S(=O)(=O)c1ccc2[nH]cc(C(=O)NCC3CCCO3)c(=O)c2c1 (stereo not drawn)	1.11	1.02
O=C1Nc2cc(C(=O)N3CCN(c4ccccc4)CC3)ccc2Sc2ccccc21	1.08	0.599
CCOc1cc2c(cc1OCC)C(c1ccc(F)cc1F)NCC2 (stereo not drawn)	0.983	-0.285
Cn1c(NCCO)nc2c(c1=O)C1(CCCCC1)Cc1ccccc1-2	0.982	-0.689
O=C(CCn1c(=O)c2sccc2n(Cc2ccccc2)c1=O)NCc1ccccc1	0.977	-0.49
COc1ccc(CN2C(=O)c3cccnc3C2Nc2ccc(OC)cc2)cc1 (stereo not drawn)	0.0167*	-12.6*

Compounds above containing a thiophene ring, fused or not (12):
SMILES	CBX7 inh	CBX7 inh z-score
COc1ccccc1N1CCN(C(c2cccs2)C(C)NC(=O)C(=O)NCc2ccccn2)CC1 (stereo not drawn)	0.848	-3.71
O=c1[nH]c(-c2ccc(OCc3ccc(F)cc3)cc2)nc2sc3c(c12)CCCC3	1.07	1.39
O=C(CC1C(=O)N(c2ccc(F)cc2)C(=O)N1Cc1cccs1)Nc1ccccc1 (stereo not drawn)	1.04	1.36
O=C(CCc1nc(-c2cccs2)no1)Nc1ccc(C(F)(F)F)cc1	1.1	2.68
O=C(CCN1C(=O)COc2ccccc21)NCc1cccs1	1.06	1.24
CCc1ccccc1NC(=O)C1CCN(S(=O)(=O)c2c(C)noc2/C=C/c2cccs2)CC1	0.946	-0.111
Cc1cc(N2CCC(C(=O)NCc3cccs3)CC2)n2nc(C)c(-c3ccc(Cl)cc3)c2n1	1.04	0.109
CCOc1ccc(NC(=O)CC2C(=O)N(c3ccc(F)cc3)C(=O)N2CCc2cccs2)cc1 (stereo not drawn)	0.983	-0.685
CN(CCCNC(=O)c1cc2c(s1)-c1ccccc1OC2)Cc1ccccc1	1.2	9.41
COc1ccc(C2=NOC(C(=O)NCc3cccs3)C2)cc1OC (stereo not drawn)	1.05	1.67
Cc1ccc(S(=O)(=O)NC(C)C(c2cccs2)N2CCOCC2)cc1 (stereo not drawn)	1.12	2.92
O=C(CCn1c(=O)c2sccc2n(Cc2ccccc2)c1=O)NCc1ccccc1	0.977	-0.49

Compound activity: PubChem BioAssay, several laboratories
